Screens as filed in PubChem.
Rango complex inh = qHTS Assay for Inhibitors of Rango (Ran-regulated importin-beta cargo) - Importin beta complex formation; Importin subunit beta-1 (Homo sapiens), Q14974; Rango CFP/YFP FRET sensor + importin beta, 45 min; AID 540263, 2011; Potency, µM (doses to about 92.2 µM), for the others: at the highest dose inhibition of complex formation; 340,000 compounds, 0.031% hits; active = rising FRET ratio curve, often small or poorly fitted; inconclusive = mostly compound fluorescence or quenching in the first reads; inactive = flat curves in all reads;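 note: potency is the fitted concentration of half-maximal effect; 0% = DMSO wells and 100% = buffer wells lacking importin beta; nearly all actives have a fitted effect of over 15% in size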
Target sequence (Q14974 whole entry, looked up): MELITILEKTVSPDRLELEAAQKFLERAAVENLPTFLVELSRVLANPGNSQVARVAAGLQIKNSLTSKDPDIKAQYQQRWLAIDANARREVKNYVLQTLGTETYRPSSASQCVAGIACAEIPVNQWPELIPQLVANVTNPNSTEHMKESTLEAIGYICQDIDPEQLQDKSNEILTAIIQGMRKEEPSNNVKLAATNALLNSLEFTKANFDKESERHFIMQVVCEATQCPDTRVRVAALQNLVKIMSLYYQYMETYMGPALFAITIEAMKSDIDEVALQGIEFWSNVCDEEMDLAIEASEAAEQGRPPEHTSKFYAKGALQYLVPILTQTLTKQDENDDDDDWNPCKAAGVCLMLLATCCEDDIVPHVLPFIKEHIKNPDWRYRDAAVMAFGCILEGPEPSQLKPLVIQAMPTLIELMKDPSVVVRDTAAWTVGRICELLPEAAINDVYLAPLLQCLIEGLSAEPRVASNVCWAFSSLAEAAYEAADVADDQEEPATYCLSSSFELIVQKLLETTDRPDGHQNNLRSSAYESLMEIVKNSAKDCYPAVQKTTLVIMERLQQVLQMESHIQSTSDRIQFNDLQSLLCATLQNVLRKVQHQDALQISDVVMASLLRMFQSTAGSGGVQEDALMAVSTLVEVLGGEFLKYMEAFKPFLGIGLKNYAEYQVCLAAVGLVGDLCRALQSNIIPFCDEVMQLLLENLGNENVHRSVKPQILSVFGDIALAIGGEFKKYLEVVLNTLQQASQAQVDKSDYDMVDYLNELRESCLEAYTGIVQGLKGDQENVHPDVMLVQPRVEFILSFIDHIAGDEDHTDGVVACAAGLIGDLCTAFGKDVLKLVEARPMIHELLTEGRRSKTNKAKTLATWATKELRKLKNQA
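FRET biosensor (snurportin 1 IBB flanked by EYFP and cerulean), 50 nM, with compound 5 min, then 0.125 microM importin beta in PBS, 1 mM DTT, 0.02% Tween-20, 0.1% BSA. CFP/YFP ratio read after 45 min at room temperature; pre-read flags interference.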
miR-21 FLuc = qHTS Assay for Modulators of miRNAs and/orActivators of miR-21. 340,000 tested, under 10 active. Potency, µM (top dose mostly 38.3 µM), without a hit: at the highest dose reporter change, positive = more light. HeLa miR-21 FLuc reporter, luciferase, 48 h; active = well fitted rising curve with a large enough effect; inconclusive = small, poorly fitted or top-dose-only effect; inactive = no such curve, though single readings can be large or run the other way;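 note: % of control where 0% means no effect; miR-21 action dims this reporter so a rising signal means less miR-21 action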
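HeLa miR-21-FLuc reporter line, endogenous miR-21; 2000 cells/well in DMEM/10% FBS; compound titration up to ~40uM final, 48 h, 37 degree Celsius; luciferase detection reagent, 15 min lysis, CCD luminescence.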
GLA inh pH 4.5 = qHTS Assay for Inhibitors of Human alpha-Galactosidase at pH 4.5. AID 1467, 2008. 230,000 tested, under 10 active. purified enzyme, 4-MU-alpha-Gal fluorescence, pH 4.5. activity change, negative = inhibition, % at 105 µM; inconclusive = small, poorly fitted or top-dose-only inhibition, or a rising curve; inactive = flat fitted curve, though single readings scatter; no compound was filed as active;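 note: 0% = full activity with enzyme and -100% = basal without enzyme; dose as in the result columns while the protocol names 77 µM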
Rango dissoc inh = qHTS Assay for Inhibitors of RanGTP induced Rango (Ran-regulated importin-beta cargo) - Importin beta complex dissociation. Biochemical FRET Rango-importin beta, RanGTP-induced dissociation. Snurportin-1 (Homo sapiens) + GTP-binding nuclear protein Ran (Homo sapiens) + Importin …. Potency, µM (titrated, usually from 46.1 µM), for the others: top-dose activity change, negative = inhibition. 340,000 compounds, 0.071% hits; active means falling FRET ratio curve, often poorly fitted, with flat reads before Ran was added; inconclusive means other falling curves, or compound fluorescence or quenching; inactive means flat or rising ratio curve;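 note: potency is the fitted concentration of half-maximal effect; % of control where 0% means no effect; nearly all actives have a fitted effect of over 45% in size; -100% = wells without RanGTP and RCC1; the record marks most hits as doubtful in a second field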
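Two FRET readings bracket the reaction: one 5 min after compound meets Rango–importin beta, another 45 min after RanGTP-RCC1 (0.6 uM Ran, 0.2 uM RCC1, 2 mM GTP) is added. Only the second defines inhibition.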
The depositor's hits bear a star; ? = inconclusive; nt = no result given; & = joins results of further samples. Only part of the results is shown, so the mix of outcomes need not match the whole.

SMILES	Rango complex inh	miR-21 FLuc	GLA inh pH 4.5	Rango dissoc inh
CC(C(=O)NC(c1ccccc1)c1ccccc1)N1CCOCC1 (stereo not given)	-1.9%	-0.8%	nt	-8.9%
COC(=O)C1=C(C(=O)OC)[C@@H]2Nc3ccccc3[C@@]23C[C@@H](C(=O)OC)N(C(=O)COCc2ccccc2)C3=N1	-1.6%	nt	6.1	2.5%
N#CCCN(C(=O)COc1ccc(C#N)cc1)c1ccc(F)cc1	-1.9%	1.9%	1.4	8.3%
COc1ccc(NCc2cc3ccccc3[nH]c2=O)cc1	?	-31.5%	7.6	-27.4%
N#C/C(=C\c1ccccc1[N+](=O)[O-])C(=O)NCc1ccccc1	?	-3.0%	-4.0	?
COc1ccc(NC(=O)CC2SC(=Nc3ccccc3)NC2=O)c(OC)c1 (stereo not given)	-0.3%	-1.8%	5.2	-2.4%
COc1ccccc1Nc1nc(C)cc(C)c1C(N)=O	0.1%	0.2%	-5.7	-15.4%
COc1ccc(S(=O)(=O)N2CCOC23CCN(S(=O)(=O)c2ccc(F)cc2)CC3)cc1	7.2%	nt	nt	12.8%
Nc1ncc(-n2cncn2)c(-c2ccc(Cl)cc2)n1	0.8%	-0.5%	9.4	?
Cc1ccc(NC(=O)C2CC(=O)N(CCc3ccccc3)C2)c(C)c1 (stereo not given)	-1.3%	-2.2%	-2.7	-2.9%
CN(CC(O)COc1ccc(S(=O)(=O)N2CCOCC2)cc1)C1CCCCC1 (stereo not given)	-1.5%	-3.8%	-6.0	17.2%
O=C(CC(Nc1ccccc1Cl)C(=O)O)c1ccccc1 (stereo not given)	-3.2%	-49.2%	0.4	3.6%
O=C(Cn1ccsc1=NC(=O)c1ccco1)c1ccccc1	-1.1%	-15.3%	-1.9	-4.9%
CC1CC(C(F)(F)F)n2nc(C(=O)O)cc2N1 (stereo not given)	2.7%	2.5%	1.5	-2.3%
CCN(CC)CCCN1C(=O)C(=O)/C(=C(/O)c2ccc3c(c2)OCCO3)C1c1ccco1 (stereo not given)	0.6%	-36.1%	-5.7	19.8%
Cn1c(SCC#N)nnc1-c1cccnc1	?	-5.8%	-2.5	?
COc1ccc(S(=O)(=O)N2CCN(Cc3ccccc3)CC2)cc1OC	0.3%	-1.6%	nt	11.5%
CCOC(=O)C1=C(N)Oc2c(c(=O)[nH]c3ccccc23)C1c1ccccc1 (stereo not given)	1.8%	-3.4%	nt	2.4%
Cc1c(OCC(=O)N[C@H](C(=O)O)c2ccccc2)ccc2c3c(c(=O)oc12)CCCC3	-4.0%	-3.0%	nt	-16.9%
Cc1cc(C)n(-c2nc(Nc3ccccc3C(F)(F)F)nc(-n3nc(C)cc3C)n2)n1	0.6%	?	-22.2	-17.7%
CN(C)Cc1ccccc1Sc1ccc2c(c1)CCCC2	1.4%	nt	nt	0.1%
CCC(C)[C@H](NC(=O)NCC1CCCO1)C(=O)OC (stereo not given in full)	0.3%	-6.7%	-4.3	1.3%
Cc1ccc(NC(=O)c2ccc(CNc3c(N4CCC(C)CC4)c(=O)c3=O)cc2)cc1	2.2%	-2.9%	1.1	-4.5%
O=C(O)C1CC(c2ccccc2)=NO1 (stereo not given)	0.5%	2.9%	0.5	5.7%
CC(=O)N(c1ccccc1C)S(=O)(=O)c1ccc(Cl)cc1	0.0%	-7.4%	5.3	-2.7%

Reprinted from the part before: 3 compounds; new compounds follow.
SMILES	Rango complex inh	miR-21 FLuc	GLA inh pH 4.5	Rango dissoc inh
Cc1ccc(NC(=O)c2ccc(CNc3c(N4CCC(C)CC4)c(=O)c3=O)cc2)cc1	2.2%	-2.9%	1.1	-4.5%
O=C(O)C1CC(c2ccccc2)=NO1 (stereo not given)	0.5%	2.9%	0.5	5.7%
CC(=O)N(c1ccccc1C)S(=O)(=O)c1ccc(Cl)cc1	0.0%	-7.4%	5.3	-2.7%
CCOC(=O)N1CCC(NC(=O)Cn2c3ccccc3c3cn[nH]c(=O)c32)CC1	nt	-0.5%	-6.3	nt
CN1CCN(C(=O)/C(=C/c2cn(S(=O)(=O)N(C)C)c3ccccc23)NC(=O)c2ccccc2)CC1	?	-7.7%	nt	-1.6%
CCOc1ncccc1C(=O)Nc1nnc(C(CC)CC)s1	4.2%	-18.0%	-0.7	18.8%
O=C(Nc1cc(S(=O)(=O)N2CCCCC2)ccc1Cl)c1ccc(F)cc1	1.4%	nt	nt	-9.5%
COc1ccc(Cl)cc1NC(=S)N(Cc1ccccc1C)CC1CCC(C(=O)O)CC1 (stereo not given)	0.6%	-0.3%	-6.5	0.7%
Cc1nc(N2CCCCC2)c2c(C)c(C(=O)Nc3ccc4c(c3)OCCO4)sc2n1	2.9%	3.4%	nt	19.1%
CN1CC(=O)N(CC(=O)Nc2ccc(F)cc2)c2ccccc2C1=O	-1.2%	-0.3%	-2.6	-1.3%
Cc1ccccc1C(=O)NC(=S)N(CCO)Cc1ccccc1	1.1%	-0.3%	nt	-16.5%
Cc1cc(C)n(-c2nnc(C)n2NC(=O)c2cccc(Cl)c2)n1	0.4%	0.6%	-5.6	1.4%
COc1ccc(CNC(=O)C2Cc3cc(S(=O)(=O)N4CCCC4)ccc3N2C(C)=O)c(OC)c1 (stereo not given)	1.6%	-0.4%	nt	13.9%
O=C(c1ccc(-n2cncn2)c([N+](=O)[O-])c1)N1CCN(S(=O)(=O)c2ccccc2Br)CC1	7.0%	nt	nt	-4.4%
O=C(Nc1ccc(N2CCOCC2)c(Cl)c1)c1ccc2c(c1)OCCO2	-6.0%	8.1%	2.5	1.4%
C=CCN1C(=O)/C(=C2/Sc3ccc(OC)cc3N2C)SC1=NCc1ccccc1	-3.7%	2.9%	11.8	-11.8%
CCC1(c2ccc(F)cc2)NC(=O)N(CC(=O)N2c3ccccc3NC(=O)C2(C)C)C1=O (stereo not given)	3.6%	nt	nt	0.1%
CCC(COC(=O)Nc1ccccc1)NC(=O)OC(C)C (stereo not given)	1.9%	-25.0%	5.1	-2.3%
CC1CCN(C(=O)CSc2nnc(CSc3ncccn3)n2C)CC1	-1.0%	0.0%	3.8	3.1%
O=C(NNC(=O)c1ccccc1-n1cccc1)c1cncc(Br)c1	4.7%	nt	nt	14.4%
CSc1ccccc1-c1nnc(-c2ccccc2)o1	-0.6%	-46.8%	-21.4	3.2%
O=C(CC12CC3CC(CC(C3)C1)C2)NC(=S)NCc1ccccc1	1.4%	-5.4%	-5.5	-2.1%
Cc1ccc(NC(=O)CSc2n[nH]c(-c3ccncc3)n2)cc1C	-1.2%	-13.2%	1.3	-2.9%
CC(C)S(=O)(=O)c1csc(C(=O)Nc2ccc(F)cc2)c1N	-1.5%	-44.8%	-5.6	1.2%
O=C(Nc1cccc(C(=O)O)c1)/C(=C/c1cccc([N+](=O)[O-])c1)NC(=O)c1cccc(Br)c1	-0.8%	nt	nt	-8.9%
O=S(=O)(NC1CCCCC1)c1ccc(Cl)nc1	1.7%	-5.3%	1.8	-0.2%
Cc1ccc(N2C(=O)CC(Sc3ncn[nH]3)C2=O)cc1 (stereo not given)	-3.3%	-1.6%	3.3	?
CN(C(=O)CN1C(=O)NC2(CCCc3ccccc32)C1=O)C1CCCCC1 (stereo not given)	6.4%	nt	nt	10.7%

Reprinted at random: two compounds from above.
SMILES	Rango complex inh	miR-21 FLuc	GLA inh pH 4.5	Rango dissoc inh
O=C(Nc1ccc(N2CCOCC2)c(Cl)c1)c1ccc2c(c1)OCCO2	-6.0%	8.1%	2.5	1.4%
CSc1ccccc1-c1nnc(-c2ccccc2)o1	-0.6%	-46.8%	-21.4	3.2%

The main list resumes with the 4 entries that preceded the break.
SMILES	Rango complex inh	miR-21 FLuc	GLA inh pH 4.5	Rango dissoc inh
O=C(Nc1cccc(C(=O)O)c1)/C(=C/c1cccc([N+](=O)[O-])c1)NC(=O)c1cccc(Br)c1	-0.8%	nt	nt	-8.9%
O=S(=O)(NC1CCCCC1)c1ccc(Cl)nc1	1.7%	-5.3%	1.8	-0.2%
Cc1ccc(N2C(=O)CC(Sc3ncn[nH]3)C2=O)cc1 (stereo not given)	-3.3%	-1.6%	3.3	?
CN(C(=O)CN1C(=O)NC2(CCCc3ccccc32)C1=O)C1CCCCC1 (stereo not given)	6.4%	nt	nt	10.7%
Cc1cc(SCC(=O)O)nc2ccccc12	1.4%&1.5%	1.1%&-1.9%	3.3&-1.0	-12.3%&-10.2%
CCCc1ccc(OCc2ccc(C(=O)N3CCN(c4ccccn4)CC3)o2)c(OC)c1	1.3%	12.2%	-11.2	6.5%
Cc1ccc2c(c1)c(C)c(C)n2CC(O)CN1CCOCC1 (stereo not given)	0.7%	1.4%	-9.0	-9.6%
COc1ccc(N2CCSC2C(=O)NN)cc1 (stereo not given)	-0.3%	-24.5%	4.1	37.7%
Cc1ccc(C(=O)N/C(=C/c2ccco2)C(=O)Nc2cccc(C)c2)cc1	5.5%	-10.2%	0.2	-1.6%
CC(C)CN(C(=O)CCC(=O)OCC(=O)N(C)c1ccccc1)c1c(N)n(CC(C)C)c(=O)[nH]c1=O	-2.4%	nt	nt	19.9%
CN1CC(=O)N(CC(=O)NC2CCCCC2)C1=O	-2.0%	nt	nt	-6.4%
COc1cccc(/C=C2\SC(=O)N(CC(=O)NC3CCS(=O)(=O)C3)C2=O)c1 (stereo not given)	-0.5%	-1.4%	nt	0.1%
CN(C)CCN(C(=O)CCS(=O)(=O)c1ccccc1)c1nc2cc3c(cc2s1)OCO3	2.6%	-5.6%	nt	25.6%
CC1(c2ccc3ccccc3c2)NC(=O)N(CC(=O)O)C1=O (stereo not given)	-0.7%	10.4%	nt	3.6%
O=C(CN1CCC(n2nnc3cc(F)ccc32)CC1)N1CCCc2ccccc21	-3.1%	4.8%	2.9	2.9%
CCOc1cc(CO)c(Br)cc1OCC(=O)O	-1.7%	1.7%	2.3	0.8%
Clc1ccccc1N=C1SCCS1	0.9%	-7.1%	-0.6	-12.0%
C=CCn1c(SCC(=O)N(CC)C2CCS(=O)(=O)C2)nnc1-c1ccccc1 (stereo not given)	-5.0%	nt	nt	4.2%
COc1ccc(C(=O)CSc2nnc(CNc3ccc(C)cc3C)n2Cc2ccco2)cc1	-2.2%	-7.9%	3.4	-8.0%
CCC[C@@H](CN1CCC[C@H]1CN1C(N)=NC[C@H]1CC(C)C)N1C[C@@H]([C@H](C)CC)N(CCCC2CCCC2)C1=N	0.2%	nt	nt	-14.6%
CC(C)N(C(=O)[C@H]1CC(CC(=O)NCc2cccc(C(F)(F)F)c2)C(=O)N2CCc3c([nH]c4ccccc34)[C@]12C)C(C)C (stereo not given in full)	-0.2%	nt	nt	-10.0%
O=C(O)CCC(=O)N1CCc2cc(S(=O)(=O)N3CC=C(c4ccccc4)CC3)ccc21	-1.4%	-1.3%	-4.4	-0.1%

For convenience, part of the list above.
SMILES	Rango complex inh	miR-21 FLuc	GLA inh pH 4.5	Rango dissoc inh
Cc1cc(SCC(=O)O)nc2ccccc12	1.4%&1.5%	1.1%&-1.9%	3.3&-1.0	-12.3%&-10.2%
CCCc1ccc(OCc2ccc(C(=O)N3CCN(c4ccccn4)CC3)o2)c(OC)c1	1.3%	12.2%	-11.2	6.5%
